# Screens deposited in PubChem by several laboratories.
# LANA-H2A inh = blocks KSHV LANA binding to histone H2A/H2B; Q9QR71; cell-free LANA-H2A/H2B peptide, fluorescence polarization; inhibition, % (concentration not given with the values); 320,000 compounds, 0.6% hits; AID 2629; in the data active means inhibition mostly above about 10%, no sharp cut-off; inactive means mostly below about 6.7%;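 further: stock transfer was 7.5 nL into about 10 µL; 0% = median of vehicle wells and 100% = median of positive control wells; one replicate is shown; the record names a cut of 25% in any replicate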
# E coli growth = inhibitors of Escherichia coli growth. 330,000 compounds, 0.21% hits. OD600, 23 h; stronger effect = lower value. AID 1053175. OD600 absorbance (no concentration beside the values);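 active means OD600 absorbance below the run mean of sample wells minus 3.6 SD, in any replicate, cut at about 0.56 in these data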;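 further: stock transfer was 300 nL into about 60 µL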
# HNF4A DNA FP = change in binding of human HNF4 alpha to DNA. P41235. HNF4a-FITC DNA binding, fluorescence polarization, 1 h. activity change, % at 10 µM. 360,000 compounds, 0.3% hits. AID 1224865; in the data active means activity change above about 30%, passing the limit was not always enough;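 further: controls were the assay level and a saturating level of protein; the project sought stronger binding though the title names inhibitors; some compounds called inactive have numbers as strong as hits; positive values seem to mean higher polarization but the record does not say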
# UCH37 inh = inhibitors of human deubiquitinating enzyme UCH37; AID 588478; inhibition, % (concentration not given with the values); 330,000 compounds, 0.33% hits; purified proteasome/UCH37, Ub-AMC cleavage fluorescence;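 active means mean of two replicates above 20%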;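 further: 0% = compound-free wells with enzyme and 100% = wells lacking proteasome; stock transfer was 100 nL into about 20 µL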
# Target sequence (Q9Y5K5 whole entry, looked up): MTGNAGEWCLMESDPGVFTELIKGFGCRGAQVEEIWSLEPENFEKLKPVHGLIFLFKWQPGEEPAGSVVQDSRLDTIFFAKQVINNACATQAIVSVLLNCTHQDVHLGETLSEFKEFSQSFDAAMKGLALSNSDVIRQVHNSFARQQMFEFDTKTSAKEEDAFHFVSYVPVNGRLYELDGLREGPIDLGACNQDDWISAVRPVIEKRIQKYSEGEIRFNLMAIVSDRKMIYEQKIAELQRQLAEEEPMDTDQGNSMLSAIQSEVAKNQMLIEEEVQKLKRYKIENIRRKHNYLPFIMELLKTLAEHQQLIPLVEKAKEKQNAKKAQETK
#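 Material: human UCH37 enzyme supplied as purified proteasome complex. Measure: % inhibition of Ub-AMC cleavage fluorescence. Medium: pH 7.4 Tris-HCl (50 mM) with ovalbumin, ATP-MgCl2, DTT. Times: 30 min preincubation with enzyme, 25 min cleavage at room temperature. Detection: AMC fluorescence intensity at 355/460 nm.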
# A1 inh = inhibitors of the anti-apoptotic protein A1, read as caspase activation | 330,000 compounds, 0.066% hits | caspase activation, % (test concentration not listed) | MEF A1-2A-BIM cells, Caspase-Glo 3/7 luminescence, 3 h; percent of clofoctol response, vehicle zero;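 active means over half of replicate activation scores above 10%, or exactly half above 10 with the replicate mean above 10; inconclusive means replicate mean below 10 yet half the replicates above 10; inactive means over half of replicates below 10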;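 further: wells of about 30 µL received 50 nL stock; many hits fall short of the cut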
# Vif A3G = inhibitors of Vif binding to APOBEC3G peptide, primary screen, biochemical, TR-FRET, GST-Vif 1-94, biotin-A3G peptide, dose response retest (AID 1117319); TR-FRET GST-Vif / biotin-A3G peptide binding; higher % means a stronger effect; test concentration not given here; strong numbers were not always called active; inhibition, %, or IC50 in µM where a hit was titrated; 260,000 compounds, 0.57% hits;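 active means above the screen mean plus three standard deviations and confirmed in dose response; inconclusive means results disagree or hit not tested in dose response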;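 further: Vif residues 1-94 fused to GST binding biotinylated APOBEC3G peptide 110-148; 0% = full assay without inhibitor and 100% = GST in place of GST-Vif; retest series ran down from 100 µM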
# Beta2AR agonist = agonists of human beta-2 adrenergic receptor inducing internalization | Am2.2-beta2AR cells, FAP receptor internalization, flow cytometry; reference of the scale not given here | response, % (test concentration not listed) | 340,000 compounds, 0.43% hits | AID 504454;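 active means response above a set limit, near 3 SD of response in nonfluorescent compounds, cut at about 42% in these data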;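 further: stock transfer was 100 nL into about 11 µL; a reference agonist was the positive control; negative values mostly stem from fluorescent compounds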
# Target sequence (P07550 whole entry, looked up): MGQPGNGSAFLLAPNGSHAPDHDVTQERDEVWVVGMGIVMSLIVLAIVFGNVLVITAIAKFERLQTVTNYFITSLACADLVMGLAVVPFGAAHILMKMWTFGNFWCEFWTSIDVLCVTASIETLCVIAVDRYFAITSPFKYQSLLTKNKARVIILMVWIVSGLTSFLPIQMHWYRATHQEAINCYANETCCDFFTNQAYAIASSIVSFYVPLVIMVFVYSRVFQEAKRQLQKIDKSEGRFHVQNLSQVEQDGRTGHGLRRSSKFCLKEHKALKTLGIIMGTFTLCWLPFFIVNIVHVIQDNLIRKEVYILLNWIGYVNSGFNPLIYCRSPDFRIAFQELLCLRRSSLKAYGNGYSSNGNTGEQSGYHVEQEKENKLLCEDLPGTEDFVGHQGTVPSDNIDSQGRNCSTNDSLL
# * = called active by the depositor; i = inactive; ? = inconclusive; . = not tested or not shown; & = joins results of further samples.
SMILES,LANA-H2A inh,E coli growth,HNF4A DNA FP,UCH37 inh,A1 inh,Vif A3G,Beta2AR agonist
Cc1cccc(C)c1OCC(O)Cn1nnc2ccccc21 (stereo not given),2.4,0.74,-2.0,3.7,-0.5,0%,0
CCOc1ccc(S(=O)(=O)N2CCCCC2)cc1NC(=O)CN1C(=O)NC(C)(C2CC2)C1=O (stereo not given),-3.7,0.66,-1.8,3.2,0.6,.,1
Cn1cc(/C=C(\NC(=O)c2ccccc2)C(=O)NCCCN2CCOCC2)c2ccccc21,-1.2,0.65,2.0,13,0.9,0%,-1
NNC(=O)c1ccc(COc2ccc3ccccc3c2)o1,-5.2,0.66,1.7,2.8,-0.7,2%,-7
CC[C@H](C)[C@@H](C(=O)NCCCCCCCCCCC(=O)N1CCN(C(=O)OC(C)(C)C)CC1)n1cc(CCCCCNC(=O)OC(C)(C)C)nn1,0.7,.,0.4,-0.4,-1.5,.,14
CC(NC(=O)Cn1cc(C(F)(F)F)ccc1=O)c1ccc(F)cc1 (stereo not given),3.3,0.71,-3.5,0.6,0.7,-5%,1
CCCc1nc2cc3c(cc2[nH]1)n(C)c(=O)n3C,4.0,0.72,-0.2,2.4,?,-6%,-6
COc1ccc(CNC(=O)C(C)N(Cc2ccccc2OC)C(=O)c2snc(C(N)=O)c2N)cc1 (stereo not given),3.6,0.71,2.9,-86,-0.5,.,3
Cn1c(C(=O)NCCN2CCOCC2)cc2c(=O)n3ccccc3nc21,1.7,0.7,4.3,i,-0.3,.,-8
CNc1nc(OCCNC(=O)Nc2ccccc2)nc(N2CCOCC2)n1,0.1,0.71,0.5,3.9,2.1,-1%,4
CN1CCN(C(=O)c2cc(-c3ccccc3)on2)CC1,-1.8,0.67,0.1,2.1,-0.7,14%,-4
Cn1ncc2c(Nc3ccc(O)cc3)nc(Cl)nc21,2.6,0.65,-0.5,1.3,-0.4,23%,2
COc1ccc(OCC(=O)N/N=C(\C)c2cc3ccccc3o2)cc1,0.3,.,2.3,.,-0.8,.,-3
CCc1ccccc1-n1c(SCC(=O)c2c(N)n(C3CC3)c(=O)[nH]c2=O)nnc1N1CCOCC1,0.0,0.68,6.7,-3.6,0.9,2%,-4
O=C(O)C1CCCN1C(=O)c1cccs1 (stereo not given),1.6,0.68,-0.3,0.2,1.3,19%,-6
COc1ccc2c(c1)CCc1c(C(=O)NCCc3ccc(OC)c(OC)c3)noc1-2,-2.5,0.76,-2.4,1.3,0.4,-4%&0%,2
CCOCCCNC(=O)c1cn(CC)c2ccc(S(=O)(=O)N3CCCC3)cc2c1=O,-7.1,0.7,3.6,6.0,0.1,-6%,5
O=C(COC(=O)c1ccc(Br)cc1)NCc1ccc(F)cc1,0.6,0.68,6.6,5.2,-0.9,?,2
Cc1nc(Cl)sc1C(=O)Nc1ccc(F)cc1,.,.,0.5,.,.,3%,-2
CCC(C)n1c(SCC(=O)NCCc2ccc(S(N)(=O)=O)cc2)nc2ccsc2c1=O (stereo not given),0.6,0.69,-2.6,4.0,1.1,-6%,-4
CC(C)c1ccc(NC(=O)C2C3C=CC4(O3)C2C(=O)N(CCN2CCOCC2)C4C(=O)NC2CCCCC2)cc1 (stereo not given),8.5,0.72,0.0,-1.0,-0.7,.,-1
COc1cc2[nH]c3c(c2cc1OC)CCN1CCCC[C@@H]31,2.8,0.73,8.1,-1.3,-0.2,.,-3
CC(NC(=O)CCC(=O)Nc1ccccc1O)c1ccccc1 (stereo not given),-1.3,0.65,1.6,4.1,0.6,.,4
CC1CC(C)CN(C(=O)CCn2c(=O)oc3ccccc32)C1 (stereo not given),-0.2,0.71,0.2,2.2,-1.6,.,-6
COc1cccc(N2CC(C(=O)Nc3nnc(SCC(=O)NCC4CCCO4)s3)CC2=O)c1 (stereo not given),-1.7,0.71,2.6,3.5,-0.8,.,0
CCNC(=O)NCCNC(=O)c1cc(OCC(F)(F)F)ccc1OCC(F)(F)F,4.6,0.71,0.6,-1.4,0.4,0%,-3
C#CCOCCOCCOCCNc1nc(N2CCOCC2)nc(N2CCN(C(=O)[C@H](CC(N)=O)n3cc(C(N)[C@@H](C)CC)nn3)CC2)n1 (stereo not given in full),1.7,.,-4.9,-1.1,0.2,.,2
O=C(NCCC1CCCCN1S(=O)(=O)c1cccs1)C(=O)Nc1ccccc1F (stereo not given),0.7,0.7,4.5,-1.9,-0.3,7%,-4
COc1ccc(C(CC(=O)NCc2ccco2)c2ccc(F)cc2)cc1 (stereo not given),3.8,0.71,1.1,5.9,0.0,-5%,1
COc1ccc(C(=O)Nc2cccc(-c3ccc(N4CCOCC4)nn3)c2)cc1,-2.7,0.68,-1.6,-2.4,-1.2,-4%,15
O=C(CNC(=O)C1COc2ccccc2O1)N/N=C\c1cccc(O)c1 (stereo not given),-4.0,.,0.0,.,-0.5,.,10
CCSc1nnc(NC(=O)C2CCN(S(=O)(=O)c3ccccc3C(F)(F)F)CC2)s1,11,0.73,-5.2,0.9,-1.0,.,1
Cc1nonc1-c1ccc2c(c1)OCO2,-0.2,0.64,0.5,1.3,0.9,?,1
CCN(CCCNC(=O)C1CCN(S(=O)(=O)N2CCOCC2)CC1)c1cccc(C)c1,-2.5,0.7,-2.9,4.5,0.4,8%,-4
COc1ccc(CNC(=O)c2nccnc2CO)cc1,-0.2,0.69,0.8,-1.1,0.2,-4%,-5
O=C(COc1ncnc2c1cnn2-c1ccccc1)Nc1ccc(S(=O)(=O)N2CCCCC2)cc1,2.3,0.68,3.4,0.8,-0.7,2%,0
O=C1/C(=C\c2ccc(O)c(O)c2)SC(=S)N1Cc1ccccc1,-2.5,0.63,68*,8.0,0.3,16%,-175
Cc1cc(=O)oc2c(C)c(OCC(=O)Nc3cccnc3)ccc12,1.6,0.71,-0.3,-10,-0.2,-9%,-7
CCn1cc(/C=C/C(=O)c2ccc(O)cc2)c(C)n1,2.3,0.65,2.2,0.1,-1.6,3%,-1
COc1ccc(-n2nc(C(=O)NCC(=O)N3CCN(c4cccc(Cl)c4)CC3)c3ccccc3c2=O)c(OC)c1,10,0.7,-0.4,-0.2,0.1,.,23
Cc1ccc(CNC(=O)c2cc3c(=O)n4ccccc4nc3n(Cc3ccco3)c2=N)cc1,3.5,0.66,-9.7,-33,0.7,.,7
COc1ccccc1NC(=O)c1nn(-c2ccc(F)c(F)c2)ccc1=O,4.2,0.76,-2.5,4.1,-0.2,0%,4
COc1ccc(/C=C/C(=O)NC(=S)NN2CCCCC2c2cccnc2)cc1OC (stereo not given),3.1,0.69,7.5,-10,0.4,.,-6
CN(C)S(=O)(=O)c1cccc(NC(=O)COC(=O)c2ccc([N+](=O)[O-])o2)c1,0.0,0.66,-0.5,6.1,1.1,15%,-4
CCC(C)(C)C1CCC(NC(=O)c2ccc(S(=O)(=O)N3CCOCC3)cc2)CC1 (stereo not given),-116,0.67,-1.9,2.7,-0.4,-6%,16
CSc1ccccc1C(=O)NCCSc1ccccc1,-1.3,0.73,2.2,1.0,0.5,1%,-4
Cc1cc(C)c(C#N)c(SCC(=O)Nc2ccccc2)n1,6.6,0.72,2.2,-1.9,0.2,-4%,-7
CCOC(=O)c1sc(NC(=O)c2cc3c(s2)CCC(C)C3)nc1C (stereo not given),-2.4,0.7,2.1,-2.8,0.1,-14%,4
COc1ccc(CC(=O)NNS(=O)(=O)c2ccc(F)cc2)cc1,5.9,0.66,2.0,6.1,0.5,.,-7
COc1ccc2c(c1OC)C(=O)N1c3ccccc3C(=O)N(c3ccccc3F)C21 (stereo not given),0.6,0.71,2.4,4.3,-0.2,0%&0%,24
Nc1c(-c2ccccc2)sc2ccc3ccccc3[n+]12,-1.1,0.67,1.5,7.9,-0.6,.,17
CCCN(CC(=O)Nc1ccccc1OC)C(=O)Cn1c(=O)oc2ccccc21,.,0.7,-0.7,-1.2,.,.,6
COc1cc(/C=C/C(=O)OCC(=O)NC(=O)NC23CC4CC(CC(C4)C2)C3)ccc1OCC#N,-5.7,0.71,0.4,-6.0,-0.2,.,5
Cc1ccc(/C=C2/C(=N)N3N=C(CC(=O)N4CCCC4)SC3=NC2=O)o1,0.1,0.71,-0.5,19,2.3,.,5
Nc1ccc(Br)cc1-c1nc2ccccc2[nH]c1=O,-5.8,0.69,-7.9,2.9,0.2,.,-4
COc1ccc(CCNC(=O)CC(C)(C)CC2=NS(=O)(=O)c3ccccc3N2)cc1OC,9.9,0.66,-5.5,1.2,0.7,.,5
CCc1nc2ccccc2c(=O)n1NC(=O)c1c(O)c2ccccc2[nH]c1=O,-0.6,.,4.3,.,0.0,?,5
COc1ccc([C@H]2C=C3CN(C(=O)OC(C)(C)C)S(=O)(=O)[C@H]3C[C@H]2OC(=O)c2ccc(C(F)(F)F)cc2)cc1,0.2,.,-0.5,1.9,-0.6,.,-1
CCC(C)NC(=O)C1CC(=O)N(CCc2ccc(F)cc2)C1 (stereo not given),-7.8,0.59,-3.8,2.3,0.0,.,-3
CCOc1ccc(CCNC(=O)CN(C)S(=O)(=O)c2ccc3c(c2)CCC(=O)N3)cc1OCC,-1.2,0.69,1.5,2.2,0.5,1%,-4

# Other compounds follow:
SMILES,LANA-H2A inh,E coli growth,HNF4A DNA FP,UCH37 inh,A1 inh,Vif A3G,Beta2AR agonist
C=CCn1c(=NC(=O)c2ccco2)sc2cc(C(=O)OC)ccc21,5.3,0.73,9.5,-77,1.6,?,-6
Cc1ccc(-c2noc(CN(C)C(=O)c3ccc(Br)o3)n2)cc1,-5.0,0.63,-2.4,3.4,0.1,-5%,-3
CCNc1nc(NCC)nc(SCCOc2ccc(C)cc2)n1,2.5,0.68,2.3,1.9,-1.1,.,-6
NCCCCCNC(=O)/C=N\O,-3.9,.,1.9,.,0.9,5%,-1
Oc1ccc(Nc2nc(N3CCCC3)c3ccccc3n2)cc1,-0.2,0.63,-3.8,4.6,0.4,-16%,18
CC(C)(C)c1csc(NC(=O)CSC2=NCCS2)n1,1.2,0.65,-1.9,1.3,0.7,.,-3
COCCN(CC(=O)Nc1cccc(C)c1C)C(=O)c1ccc2c(c1)OCO2,.,0.69,7.2,2.9,.,-10%,3
CN(C)c1cc(N/N=C\c2ccccc2)nc(N(C)C)n1,-2.1,.,-0.5,.,0.3,.,13
O=C(NC(=S)N1CCN(c2ccc(Cl)cc2[N+](=O)[O-])CC1)c1ccco1,-0.4,.,1.7,2.1,1.8,5%,3
COC(=O)COc1ccc(S(=O)(=O)Nc2ccc3c(c2)OCCO3)cc1Cl,-1.7,0.73,-2.9,1.8,-0.5,-1%,42
COc1ccc(CC(=O)O/N=C(\N)Cc2cccc3ccccc23)cc1OC,0.0,.,1.9,.,0.5,.,5
NS(=O)(=O)c1ccc(NC(=O)CSc2nnc(C3CC3)n2C2CC2)cc1,-2.8,0.71,-0.5,2.4,0.0,-7%,-8
O=C1COc2ccc(S(=O)(=O)CCC(=O)NC3CCCCC3)cc2N1,3.8,0.69,-0.5,0.5,-0.2,.,0

# Ordered by molar mass (ascending): 4 of the compounds above
SMILES,LANA-H2A inh,E coli growth,HNF4A DNA FP,UCH37 inh,A1 inh,Vif A3G,Beta2AR agonist
Cc1nc(Cl)sc1C(=O)Nc1ccc(F)cc1,.,.,0.5,.,.,3%,-2
CCNc1nc(NCC)nc(SCCOc2ccc(C)cc2)n1,2.5,0.68,2.3,1.9,-1.1,.,-6
COc1cc(/C=C/C(=O)OCC(=O)NC(=O)NC23CC4CC(CC(C4)C2)C3)ccc1OCC#N,-5.7,0.71,0.4,-6.0,-0.2,.,5
CC(C)c1ccc(NC(=O)C2C3C=CC4(O3)C2C(=O)N(CCN2CCOCC2)C4C(=O)NC2CCCCC2)cc1 (stereo not given),8.5,0.72,0.0,-1.0,-0.7,.,-1
